Compound activity from PubChem BioAssay.
KCNQ2 pot = potentiators of rat KCNQ2 potassium channel; Potassium voltage-gated channel subfamily KQT member 2 (Rattus norvegicus), O88943; CHO-K1 KCNQ2, FluxOR thallium flux fluorescence; stronger effect = higher value; B-score at 10 µM; 310,000 compounds, 0.54% hits; AID 2239, 2010;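 active means fluorescence ratio B-score at least 3 SD of library B-scores, with initial fluorescence B-score within 3 SD, cut at about 5.3 in these data; same plate scores as AID 2156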;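 further: B-score of peak minus minimum over baseline fluorescence ratio after K+ and Tl+ stimulus; positive B-score means potentiation of KCNQ2 with more thallium influx and brighter signal; only the inactives scoring about 0 or higher are listed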
Target sequence (O88943 whole entry, looked up): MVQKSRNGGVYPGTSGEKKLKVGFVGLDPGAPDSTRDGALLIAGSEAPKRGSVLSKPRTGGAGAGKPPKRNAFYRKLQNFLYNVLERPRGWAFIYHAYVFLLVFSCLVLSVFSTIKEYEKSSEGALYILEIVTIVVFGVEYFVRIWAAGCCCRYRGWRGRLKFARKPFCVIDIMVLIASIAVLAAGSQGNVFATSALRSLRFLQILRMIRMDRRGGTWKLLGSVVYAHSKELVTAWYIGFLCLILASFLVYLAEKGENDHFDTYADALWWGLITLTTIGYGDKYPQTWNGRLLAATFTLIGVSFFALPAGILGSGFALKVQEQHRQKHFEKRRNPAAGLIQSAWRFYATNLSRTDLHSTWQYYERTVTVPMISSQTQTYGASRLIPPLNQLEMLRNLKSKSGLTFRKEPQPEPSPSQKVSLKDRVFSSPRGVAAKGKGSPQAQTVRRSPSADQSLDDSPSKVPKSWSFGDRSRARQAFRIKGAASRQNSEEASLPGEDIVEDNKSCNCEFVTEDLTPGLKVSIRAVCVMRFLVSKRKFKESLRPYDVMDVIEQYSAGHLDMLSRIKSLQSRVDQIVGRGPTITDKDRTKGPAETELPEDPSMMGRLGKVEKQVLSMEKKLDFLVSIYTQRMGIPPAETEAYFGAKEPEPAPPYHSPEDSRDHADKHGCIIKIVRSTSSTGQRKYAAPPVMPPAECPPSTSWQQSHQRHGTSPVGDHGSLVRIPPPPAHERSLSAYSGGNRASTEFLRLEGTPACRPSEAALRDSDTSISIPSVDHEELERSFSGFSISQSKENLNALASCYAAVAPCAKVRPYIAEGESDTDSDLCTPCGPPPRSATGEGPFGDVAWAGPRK
KCNQ2 pot baseline = second read-out of KCNQ2 pot, no call of its own (marks repeat the call); B-score; compound at 10 µM; measured here: initial fluorescence intensity artifact check;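 brightness before thallium and not channel activity; 0 = typical well and far values either way flag optical interference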
An asterisk follows results filed as active. Not all compounds are listed (hit frequency here may not be typical).

Sample of the layout (two entries):
SMILES	KCNQ2 pot	KCNQ2 pot baseline
O=C1C2CC=CCC2C(=O)N1Cc1nnc(-c2ccccc2Br)o1 (stereo not given)	1.5	-1.3
Cc1cc(C)cc(C(=O)N2CCN(c3ccccn3)CC2)c1	0.47	1.1

All compounds of this part, repeating the preview:
SMILES	KCNQ2 pot	KCNQ2 pot baseline
O=C1C2CC=CCC2C(=O)N1Cc1nnc(-c2ccccc2Br)o1 (stereo not given)	1.5	-1.3
Cc1cc(C)cc(C(=O)N2CCN(c3ccccn3)CC2)c1	0.47	1.1
O=C1C2C3C=CC([C@@H]2C(=O)N1c1nccs1)C31CC1 (stereo not given in full)	0.41	-0.39
Cc1ccc(S(=O)(=O)Nc2c(C)[nH]c(=O)[nH]c2=O)cc1C	1.2	-0.13
CCOC(=O)c1c(N)ssc1=S	0.37	0.52
Fc1ccc(OCc2nnc(-c3ccccc3Br)o2)c(Cl)c1	0.37	0.4
COc1cc(NC(=O)C/C(C)=N/NC(=O)C(=O)NCCO)c(OC)cc1Cl	1.1	0.08
Cc1ccc(Nc2c(-c3ccc(N4CCOCC4)cc3)nc3cnccn23)cc1	0.31	-1.1
O=C(Cn1cc(C(F)(F)F)ccc1=O)Nc1ccc(N2CCOCC2)cc1	0.57	1.2
O=[N+]([O-])c1cccnc1Sc1ccccc1Cl	0.57	-0.51
CC(C)Oc1ccc(Cl)cc1Nc1nc(NCCO)nc(N2CCCC2)n1	0.09	-0.7
CCOCCCNC(=O)c1cn2c3c(ccc(Cl)c3c1=O)OC(C)C2 (stereo not given)	0.49	0.5
CCCC(=O)c1c[nH]c(C(=O)NCCc2ccccn2)c1	0.08	-0.57
O=C(COc1ccc(Cl)cc1)Nc1nnc(-c2ccc3c(c2)CCCC3)o1	0.35	0.33
CCc1nc(SCC(=O)Nc2nnc(CC(C)C)s2)n[nH]1	0.11	-3.5
O=C(CCC(=O)Nc1ccc(F)cc1)N/N=C/c1ccc(O)cc1	1.4	-0.09
C=CCC(C)(NCc1ccccc1)c1ccco1 (stereo not given)	0.03	0.45
Cc1cc(C)c(S(C)(=O)=O)c(Oc2ccc(F)cc2)n1	0.27	-1.3
CC1CC(C)CN(c2ncnc3c2cnn3Cc2ccc(Cl)cc2)C1 (stereo not given)	0.19	0.38
O=[N+]([O-])c1cc(S(=O)(=O)N2CCCC2)ccc1O	0.7	-0.11
C=CCOc1ccc(/C=N/NC(=O)c2cc3c(OC)cc(OC)cc3[nH]2)cc1	1.4	-0.55
COc1ccc2c(Cl)c(-c3nnc4n3CCCCC4)sc2c1	0.8	0.72
Cc1ccc(S(=O)(=O)n2nc(C)c(S(=O)(=O)N3CCCCC3)c2C)cc1	0.39	0.19
Cc1ccc(S(=O)(=O)N2CCOCC2)cc1NC(=O)COc1ncnc2ccccc12	1.3	0.63
CCCCc1ccc(NC(=S)NN2CCOCC2)cc1	0.05	-0.78
O=C(NCCN1CCN(C(=O)c2cc3ccccc3oc2=O)CC1)c1cc2ccccc2oc1=O	1.9	0.52
CC(=O)NNc1nc2ccccc2s1	0.39	0.16
CCOC(=O)N1CCc2c(sc3c2c(=O)n(Cc2ccccc2)c(=O)n3CC(=O)NCC2CCCO2)C1 (stereo not given)	0.43	-0.7
O=C(O)C1Cc2[nH]cnc2C(c2ccc(F)cc2)N1 (stereo not given)	0.68	-1.1
CCOc1ccc(C(=O)Cc2ccc3oc(C(=O)O)cc3c2)c(O)c1	1.5	0.55
NS(=O)(=O)c1cccc(NC(=O)c2cc(=O)c3ccccc3o2)c1	0.36	2
Cn1nnc(NC(=S)NC(=O)c2ccc(-c3ccc(Br)cc3)o2)n1	0.1	-0.92
COc1cc(C(=O)NCc2cn3ccccc3n2)cc(OC)c1OC	0.01	1.8
CN(CCOc1ccc(Cl)cc1)Cc1cccc(S(=O)(=O)N(C)C)c1	0.77	-1.5
O=C1C2C3C=CC(CC3)C2C(=O)N1c1ccccc1[N+](=O)[O-] (stereo not given)	0.28	0.96
CCOC(=O)c1oc2ccc(S(=O)(=O)N3CCOCC3)cc2c1C	2.4	1.3
CCCC(=O)Nc1sc(C)c(C)c1C#N	0.44	-2.1
O=C(NCc1ccc2c(c1)OCO2)C1CC(=O)N(C2CCCCCC2)C1 (stereo not given)	0.32	0.28
Cc1cccc(NC(=O)c2cc(=O)[nH]c3ccccc23)c1	0.01	0
CCOc1ccc(N2C(=O)CN(O)C=C3N=c4ccccc4=C32)cc1	0.75	0.35
O=C(O)C1Cc2ccccc2CN1C(=O)c1ccco1 (stereo not given)	1.7	-0.34
CCC(=O)Nc1cccc(C2=NOC3(C2)C[C@@H](C(N)=O)N(C(=O)c2cc([N+](=O)[O-])cc([N+](=O)[O-])c2)C3)c1 (stereo not given in full)	0.59	0.17
CCN(CC)S(=O)(=O)c1cc(NC(=O)CNc2cccc(S(=O)(=O)N3CCOCC3)c2)ccc1C	1	0.69
O=C1CNc2ccc(C(=O)N3CCN(c4ccccn4)CC3)cc2N1	0.01	0.33
O=C(NCc1ccco1)Nc1ccc2snnc2c1	6.1*	-0.05*
NC(=O)CSc1nnc(-c2cccs2)n1Cc1ccco1	1.2	0.5
O=C(COc1ccccc1[N+](=O)[O-])N/N=C/c1ccc(O)cc1	0.34	-0.65
CC(=O)c1c(C)[nH]c(C(=O)N2CCCCCC2)c1C	1.2	-0.15
O=C(c1ccc2c(c1)OCCCO2)c1cccs1	2.1	-1.7
CCN1CCN(C(=S)c2ccc(-c3ccccc3)cc2)CC1	1.1	0.37
CC(C)C(C)(C#N)NC(=O)CSc1nc(C2CCCCC2)n(-c2ccccc2)n1 (stereo not given)	0.03	0.04
CC(/C=C/c1ccco1)=N\NC(=O)C(O)c1ccccc1 (stereo not given)	1.6	-0.39
CC(C)CCNC(=O)c1cnn2c(C(F)(F)F)cc(-c3ccco3)nc12	1.2	-1.1
COc1ccc2oc(C(=O)NCC(Cc3ccccc3)N(C)C)c(C)c2c1 (stereo not given)	0.51	-0.55
O=C(NC(=S)N1CCN(Cc2ccc3c(c2)OCO3)CC1)c1cccc(Br)c1	9.5*	0.53*
CC1(c2ccc(Cl)cc2)NC(=O)N(CC(=O)Nc2cccnc2Cl)C1=O (stereo not given)	1.4	1
C=CCNC(=O)CN1CCC(NC(=O)c2ccco2)CC1	1.1	0.16
Cc1cc(O)ccc1NS(=O)(=O)c1ccc2c3c(cccc13)C(=O)N2	2.5	0.03
O=C(/C=C/c1ccc(Br)cc1)NCc1cccs1	0.66	0.2
CN1CCN(C(=O)c2sc(=S)n(-c3ccccc3)c2N)CC1	0.93	-0.96

More entries
SMILES	KCNQ2 pot	KCNQ2 pot baseline
CCOC(=O)C1CCN(C(=S)Nc2ccccc2)CC1	0.08	-0.96
O=C1c2ccccc2C(=O)N1CCc1nc(-c2cccnc2)no1	0.39	-0.02
CCc1nnc(NC(=O)c2ccc(OCc3c(C)noc3C)c(OC)c2)s1	0.13	0.27
CCOc1ccc(CCNC(=O)C2CCN(C(=O)N(C)C)CC2)cc1OCC	0.74	-0.02
NC(=O)c1ccc(NC(=O)CSc2nnc(-c3cccnc3)n2Cc2ccco2)cc1	1.9	0.1
COc1ccc2[nH]c(=O)c(C(=O)O)cc2c1	0.02	-0.13
S=C(Nc1ccccc1)N1CCc2ccccc21	0.59	-0.92
CC(=O)c1ccc(N(C)C)cc1	0.49	1.3
Cc1ccn(CCNC(=O)C2CCC(=O)N(CCc3ccc(Cl)cc3)C2)n1 (stereo not given)	1.9	0.54
Cc1ccc(/C=N/NC(=O)c2ccc3nc[nH]c3c2)o1	0.17	-0.85
Cc1ccc(C2(C)NC(=O)N(CC(=O)Nc3ccccc3C(=O)N3CCCCC3)C2=O)cc1 (stereo not given)	1.5	-0.99
COc1cc([N+](=O)[O-])ccc1NC(=O)COC(=O)c1ccc(NC(N)=O)cc1	3.3	1.8
CCC(C)[C@@H](N)C(=O)N/N=C/c1ccc2ncccc2c1 (stereo not given in full)	0.24	2.6
c1ccc(-c2cc(N3CCOCC3)nc(-c3ccccc3)n2)cc1	0.72	-0.57
O=C(CSc1nnc(C2COc3ccccc3O2)o1)N1CCCCC1 (stereo not given)	0.98	-0.28
O=C(Nc1nccs1)C1CC(=O)N(Cc2ccco2)C1 (stereo not given)	1.9	-0.86
C[C@@H]1NC(=O)[C@H](CCCN=C(N)N)NC(=O)c2cc([N+](=O)[O-])cc(I)c2OCC[C@@H](C(=O)NC(CC(=O)O)C(N)=O)NC1=O (stereo not given in full)	0.27	-0.59
CCNC(=O)c1sccc1-n1cccc1	0.61	1.5
CCOc1ccc(-c2nc(CCl)cs2)cc1OC	0.53	-0.12
O=C1c2ccccc2-c2c1cccc2C(=O)N1CCCCCC1	0.36	-1.7
CCOc1ccc(S(=O)(=O)N2CCC(C(=O)NCc3ccncc3)CC2)cc1C	0.04	0
CCOc1ccc(C(=O)CCC(=O)O)cc1	0.02	1.1
Cc1ccc(CS(=O)Cc2ccc(C(=O)NCc3ccc4c(c3)OCO4)o2)cc1 (stereo not given)	0.8	0.53
Nc1nonc1-n1nnc(C(=O)N/N=C/C=C/c2ccccc2)c1CSC1=NCCS1	0.07	0
Cc1ccc(-n2nc3c(c2NC(=O)c2ccc4c(c2)OCO4)CS(=O)C3)cc1 (stereo not given)	0.89	0.95
COc1ccc(NC(=O)c2cccc(NC(=O)c3ccccc3)c2)cc1	1.7	-0.05
CCc1sc(C(=O)NC2CCN(C)CC2)cc1Br	1.8	0.86
COc1ccccc1N1CCN(C(=O)c2ccc3c(c2)CCN3S(C)(=O)=O)CC1	2.5	0.29
CC(C)CCNC(=O)CN(Cc1cccs1)C(=O)CCC(=O)Nc1nccs1	3	-2.6
O=C(O)c1cc(-n2nnnc2SCc2ccc([N+](=O)[O-])cc2)ccc1Cl	0.17	-0.71

Filtered by structure: the entries above containing a thiophene ring, fused or not
SMILES	KCNQ2 pot	KCNQ2 pot baseline
COc1ccc2c(Cl)c(-c3nnc4n3CCCCC4)sc2c1	0.8	0.72
CCOC(=O)N1CCc2c(sc3c2c(=O)n(Cc2ccccc2)c(=O)n3CC(=O)NCC2CCCO2)C1 (stereo not given)	0.43	-0.7
CCCC(=O)Nc1sc(C)c(C)c1C#N	0.44	-2.1
NC(=O)CSc1nnc(-c2cccs2)n1Cc1ccco1	1.2	0.5
O=C(c1ccc2c(c1)OCCCO2)c1cccs1	2.1	-1.7
O=C(/C=C/c1ccc(Br)cc1)NCc1cccs1	0.66	0.2
CCNC(=O)c1sccc1-n1cccc1	0.61	1.5
CCc1sc(C(=O)NC2CCN(C)CC2)cc1Br	1.8	0.86
CC(C)CCNC(=O)CN(Cc1cccs1)C(=O)CCC(=O)Nc1nccs1	3	-2.6

(further entries)
SMILES	KCNQ2 pot	KCNQ2 pot baseline
COc1ccccc1NS(=O)(=O)c1ccc(N/N=C/c2ccccc2OCC(=O)O)c([N+](=O)[O-])c1	1.1	-1.7
COc1ccc(NC(=O)C2CC2)cc1NS(=O)(=O)c1ccc(F)cc1	2.2	-1.5
N/C(CN1CCCC1=O)=N\OC(=O)c1ccc(Cl)c(Cl)c1	0.05	0.2
CCc1ccc(NC(=O)CCNC(=O)Cn2ccc3ccccc3c2=O)cc1	0.5	0.9
O=C(c1ccccc1)N1CCN(C2CC(=O)N(CCc3ccccc3)C2=O)CC1 (stereo not given)	0.77	-0.11
O=C(Nc1cccc(O)c1)c1cc(-c2cccs2)on1	1.2	-1.9
CCN(C(=O)C1CCCN1S(=O)(=O)c1cccc2nsnc12)c1ccccc1 (stereo not given)	0.93	0.04
Cn1c(COc2ccc(Cl)cc2Cl)nnc1SCC(=O)NCC1CCCO1 (stereo not given)	0.67	-0.32
CN(CC(=O)Nc1c(Cl)cccc1Cl)C(=O)CNC(=O)c1ccc2c(c1)OCO2	1.8	0.87
Cc1ccc(CCNC(=O)C2CCC(=O)N2CCc2ccccc2)cc1 (stereo not given)	1.6	-0.97
Cc1cccc(N2C(=O)CC(c3ccc(F)cc3)C3=C2COC3=O)c1 (stereo not given)	0.81	-0.66
CCCN1C(=O)c2ccccc2NC1c1cc(OC)c(OC)c(OC)c1 (stereo not given)	0.96	0.35
Cc1ccc(OCCN2C(=O)C(=O)c3cccc(C)c32)cc1	0.63	-0.58
O=[N+]([O-])c1cc(S(=O)(=O)C(F)(F)F)ccc1NCC1CCCO1 (stereo not given)	2	-0.05
CC(C)c1ccc(NC2CCCN(C(=O)CN3CCOC3=O)C2)cc1 (stereo not given)	1.3	-0.63
O=C(Nc1cccc(C(=O)N2CCCc3ccccc32)c1)c1ccccc1	0.26	-0.58
CC(C)C(NS(=O)(=O)c1cccc(C(F)(F)F)c1)C(=O)N1CCc2ccccc2C1 (stereo not given)	0.65	-0.07
CC(C)c1[nH]nc2c1C(c1cccc(OC(=O)N3CCOCC3)c1)C(C#N)=C(N)O2 (stereo not given)	0.94	0.39
CCOC(=O)Cn1c(=O)c2c(nc(N3CCOCC3)n2C)n(C)c1=O	0.39	-1.1
COc1ccccc1OCc1n[nH]c(=S)n1Cc1ccccc1	0.22	0.58
NC(=O)CC(NC(=O)Cc1cccc2ccccc12)c1ccc(NC2CCCCCC2)c([N+](=O)[O-])c1 (stereo not given)	0.69	0
CCOC(=O)c1c(C)nc2ccccn12	0.62	0.94
Nc1nnc(SCC(=O)NC23CC4CC(CC(C4)C2)C3)s1	1.6	0.53
CCc1ccc(/C(C)=N/NS(=O)(=O)c2ccc(OC)cc2)s1	1.4	0.03
COc1ccc2[nH]c(=O)c(CN(C(=O)c3ccccn3)c3ccccc3)cc2c1	0.5	1.9
